# INS promoter inh = TRM-6 insulin promoter activity inhibition | AID 1273 | inhibition, % at 2 µM | TRM-6 cells (human fetal islet line), insulin promoter-eGFP reporter, imaging; reporter expression induced with tamoxifen | 130,000 compounds, 0.9% hits;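 active = inhibition above the mean plus 3 SD, with well images judged a real hit on visual review, cut at about 60% in these data, passing the limit was not always enough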
# PKD1 inh = inhibitors of human PKD1 kinase | Q15139 | PKD1 kinase fluorescence polarization assay | inhibition, %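 (about 10 µM by stock and volumes)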 | 200,000 compounds, 0.056% hits | AID 797;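 active = inhibition of 50% or more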;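 also: controls were vehicle for no effect and a reference inhibitor for full effect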
# RGS16-Gao = regulators of human RGS16-Galphao interaction; O15492+P09471; bead-based flow cytometry RGS16-Galphao binding, fluorescence; actives lie on both sides; binding response (% of control), % at 10 µM; 220,000 compounds, 0.38% hits; AID 1441;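 active = below 25% or above 175%, edge rows of some plates excepted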;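 also: Galphao activated by GDP with aluminum fluoride before binding; 100% = wells without compound and 0% = beads without RGS; some results beyond the cut were filed as inactive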
# Target sequence (O15492 whole entry, looked up): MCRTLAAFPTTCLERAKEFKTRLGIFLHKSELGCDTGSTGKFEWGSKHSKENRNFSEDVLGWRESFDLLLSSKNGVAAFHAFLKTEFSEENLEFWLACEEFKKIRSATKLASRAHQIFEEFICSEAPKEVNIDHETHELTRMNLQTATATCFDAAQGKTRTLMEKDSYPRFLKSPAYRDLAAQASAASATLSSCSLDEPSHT
# Target sequence (P09471 whole entry, looked up): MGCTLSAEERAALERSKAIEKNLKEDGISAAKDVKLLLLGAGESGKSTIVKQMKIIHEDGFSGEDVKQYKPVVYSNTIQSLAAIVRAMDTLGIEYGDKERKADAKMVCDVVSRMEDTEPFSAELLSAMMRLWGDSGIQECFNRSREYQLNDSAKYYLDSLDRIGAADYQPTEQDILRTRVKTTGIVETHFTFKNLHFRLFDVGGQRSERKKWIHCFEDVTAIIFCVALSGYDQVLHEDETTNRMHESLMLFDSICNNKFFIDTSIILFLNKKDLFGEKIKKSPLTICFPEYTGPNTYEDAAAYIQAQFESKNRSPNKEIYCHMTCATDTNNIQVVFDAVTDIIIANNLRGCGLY
# GALR2 agonist = activates the human galanin receptor 2. O43603. activation, %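 (tested at 5 µM)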. 140,000 compounds, 0.48% hits. AID 803. GALR2-expressing cells, agonist activation read-out;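 active = above mean plus 3 SD of all compounds, about 5% in these data, not always enough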;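 also: 0% = vehicle buffer wells and 100% = reference agonist at full effect; tested in CHO reporter cells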
# Target sequence (O43603 whole entry, looked up): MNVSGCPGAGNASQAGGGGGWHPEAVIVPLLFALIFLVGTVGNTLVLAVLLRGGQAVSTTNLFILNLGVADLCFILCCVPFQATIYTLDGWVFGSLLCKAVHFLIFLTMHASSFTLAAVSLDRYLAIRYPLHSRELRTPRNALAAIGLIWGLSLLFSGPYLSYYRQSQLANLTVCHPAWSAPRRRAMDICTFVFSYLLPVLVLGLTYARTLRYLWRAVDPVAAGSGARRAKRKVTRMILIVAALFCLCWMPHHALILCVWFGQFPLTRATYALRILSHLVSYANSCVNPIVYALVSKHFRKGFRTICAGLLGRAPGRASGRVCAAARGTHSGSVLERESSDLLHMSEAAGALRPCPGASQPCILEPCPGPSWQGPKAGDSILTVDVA
# HSV augment = increases HSV replication in cells. HSV replication augmentation in cells, fold increase. maximum fold increase. 220,000 compounds, 0.005% hits;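 active = peak rise of 1.5-fold or more in the series; tested in PC3 cells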;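 also: first round at 10 µM; read as green reporter fluorescence; hits show the peak of a series up to 25 µM; 1 = signal of infected wells without compound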
# INS promoter inh cell count = second read-out of INS promoter inh, no call of its own (marks repeat the call); normalized cell count, %; measured here: cell count, toxicity; reference of the scale not given here;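 cells exposed to compound for 48 h; stained nuclei by imaging scaled within each plate; lower means fewer cells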
# HSV augment primary fold = further read-out of HSV augment, marked with its call; fold increase; compound at 10 µM; measured here: primary screen fold increase 10 uM; tested in PC3 cells;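 GFP signal in the first replicate; 1 = infected wells without compound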
# An asterisk follows results filed as active; i = inactive; · = no result given.
SMILES,INS promoter inh,INS promoter inh cell count,PKD1 inh,RGS16-Gao,GALR2 agonist,HSV augment,HSV augment primary fold
CCOC(=O)CN(C(=O)CNC(=O)c1cccs1)C(C(=O)NC1CCCCC1)c1cccnc1 (stereo unspecified),-31,60,-2,55,-0.7,i,0.98
O=C1CC(C(=O)O)C2(CCCC2)O1 (stereo unspecified),31,129,-9,·,0.6,i,1.1
CC(=O)c1c(C)[nH]c(C(=O)Nc2nccs2)c1C,·,·,4,99,·,i,0.8
CCOC(=O)c1ccc(NC(=O)CN(C)S(=O)(=O)c2ccc(OC)cc2)cc1,-131,116,-5,76,-3.8,i,0.83
CC(C)CCNC(=O)C1CC(c2ccc(C(F)(F)F)cc2)=NO1 (stereo unspecified),·,·,·,108,·,i,1.1
Cc1csc(NC(=O)CN2CCCCCC2)n1,9,114,-8,96,0.0,i,0.89
CNC(=O)N/N=C(\N)c1ccccn1,·,·,·,95,·,i,1.1
Cc1cnc(C(=O)Nc2ccc(N3CCCCC3)cc2)cn1,-43,103,5,113,·,i,1.1
Cc1nn(-c2ccccc2)c(C)c1[N+](=O)[O-],-13,45,2,80,·,i,0.97
CC1(C)CC(=O)C(C=Nc2ccc3c(c2)OCO3)=C(O)C1,0,180,-6,100,-1.5,i,1.1
CC(C)C(=O)Nc1cccc(C(=O)NCCc2ccc(S(N)(=O)=O)cc2)c1,-64,82,-2,99,-2.5,i,0.95
COCC(=O)Nc1cc(=O)n(C)c(=O)n1C,·,·,4,107,-1.7,i,1
O=S(=O)(NCCSc1ccccn1)c1ccc(Br)cc1,7,100,-5,107,·,i,0.87
Cc1ccc(S(=O)(=O)CCc2nnc(NC(=O)c3cccs3)s2)cc1,·,·,-3,123,-1.7,i,1
COc1cccc(NC(=O)N2CCCC2)c1,-16,71,2,103,·,i,0.79
Cc1ccc(C(=O)NCc2ccco2)cc1S(=O)(=O)N1CCCCC1,-18,115,-18,99,-0.2,i,1.1
CNS(=O)(=O)c1c(C)cc(C)c(N(C)S(=O)(=O)c2ccccc2)c1C,·,·,-2,103,·,i,0.93
CCOc1nc(NC(=O)NS(=O)(=O)c2ccccc2F)nc(-c2ccccc2)n1,91*,133*,-4,112,·,i,1
N#Cc1ccccc1NC(=O)C1SC(=Nc2ccccc2)C(C(=O)Nc2ccc(Cl)cc2)=C1N (stereo unspecified),·,·,-6,89,·,i,1
CCN(CC)c1ccc2oc(=O)c(C)nc2c1,-31,74,2,48,-1.7,i,0.81
CCc1ccc(Nc2n[n+](C)c(-c3ccc(C(=O)O)cc3)s2)cc1,·,·,·,93,·,i,1.2
CCOC(=O)c1c(NC(=O)CSc2nnc(C)o2)sc(C)c1C,·,·,·,106,·,i,1
CCOCC(=O)Nc1cccc(OC)c1,0,112,6,100,-0.5,i,0.86
CCO[C@H]1OC(C(=O)N2CCN(C)CC2)=C[C@@H](c2csc3ccccc23)[C@@H]1CCCO,·,·,7,100,·,i,1
Cc1ccc(S(=O)(=O)NN=C2CCN(Cc3ccccc3)CC2)cc1,-83,60,2,98,-1.4,i,1.1
# (cont.)
SMILES,INS promoter inh,INS promoter inh cell count,PKD1 inh,RGS16-Gao,GALR2 agonist,HSV augment,HSV augment primary fold
Cc1ccc(S(=O)(=O)N2CCCN(c3nc4cc(C)ccc4cc3C#N)CC2)cc1,-131,75,-5,98,3.0,i,1.1
c1ccc(-n2cnc3cc(NCc4cccs4)ccc32)cc1,-11,138,-12,100,-1.9,i,0.69
COc1ccccc1/C=N/Nc1cc(N(C)C)nc(N(C)C)n1,·,·,2,100,·,i,0.97
NC(=O)CNC1CC(=O)N(CCc2ccccc2)C1=O (stereo unspecified),17,121,-2,103,-0.3,i,1.1
O=C(NC1CCCc2ccccc21)c1ccc(Br)cc1 (stereo unspecified),·,·,-11,99,-0.5,i,1
CNS(=O)(=O)c1ccc(NC(=O)c2ccc(Cl)cc2Cl)cc1,46,86,-5,42,-1.2,i,1
CC(=O)c1ccc(OCCCC(=O)Nc2cccc(S(=O)(=O)N(C)C)c2)cc1,0,89,1,100,-0.5,i,1
CCOC(=O)N1CCN(C(=O)CC(=O)Nc2ccc3nc4n(c(=O)c3c2)CCCCC4)CC1,·,·,-2,107,-2.2,i,0.93
CCOC(=O)C1=C(C)Nc2ccccc2N=C1NC(=O)C(CC)c1ccccc1 (stereo unspecified),·,·,-5,108,-0.2,i,0.88
COc1cccc(-c2cc(C(=O)Nc3c(C)n(C)n(-c4ccccc4)c3=O)no2)c1,12,103,-10,40,-3.8,i,1.1
O=C(CCN1C(=O)c2ccccc2C1=O)OCn1nnc2ccccc2c1=O,8,112,-5,101,-2.8,i,0.94
CC(C)(C)OC(=O)N1CCC(c2c(C(=O)O)cnn2-c2ccccc2Cl)CC1,-36,104,-4,101,0.2,i,1.2
CCOc1ccc(CNC(=S)NCc2ccc(OCC)cc2)cc1,·,·,-7,99,-0.8,i,0.98
CC1=C(C(=O)Nc2ccccc2)C(c2cccs2)n2nnnc2N1 (stereo unspecified),-13,113,-6,103,-0.7,i,0.89
N#C/C(=N\Nc1ccc(Cl)cc1)C(=O)c1ccsc1,·,·,·,100,·,i,1.1
Cn1cc2ccc([N+](=O)[O-])cc2n1,·,·,·,93,·,i,0.92
Cc1ccc(N/C(SCc2ccccc2C)=C(/C#N)C(=O)NCc2ccco2)cc1C,-26,242,-2,102,-1.5,i,0.85
CCc1cc(C(=O)c2ccc(OC)cc2)c(N)s1,·,·,·,101,·,i,0.97
COc1ccc(C2NC(c3ccc(OC)cc3)C(c3ccccc3)C(=O)C2c2ccccc2)cc1 (stereo unspecified),-21,93,-1,101,0.2,i,1
O=c1c(C(c2ccccc2)c2c(O)sc3ccccc3c2=O)c(O)sc2ccccc12,80*,86*,-12,101,-3.2,·,·
Cc1ccc(N(CC(=O)Nc2c(C)n(C)n(-c3ccccc3)c2=O)S(C)(=O)=O)cc1C,33,88,0,71,-2.2,i,0.97
NS(=O)(=O)c1ccc(CNC(=O)Cc2ccccc2F)cc1,·,·,1,101,·,i,0.96
O=C1CC(c2ccc(Cl)cc2)CC(=O)C1CS(=O)(=O)c1ccccc1 (stereo unspecified),-64,113,-10,41,·,i,1
O=C(Oc1ccccc1C(=O)Oc1ccccc1)c1cccnc1,·,·,5,104,·,i,0.97
COc1ccc(-c2nnc(NC(=O)c3cc(C)on3)s2)cc1,-174,70,-9,104,-1.0,i,0.97

# An excerpt from above in order of SMILES length, largest number first:
SMILES,INS promoter inh,INS promoter inh cell count,PKD1 inh,RGS16-Gao,GALR2 agonist,HSV augment,HSV augment primary fold
COc1cccc(-c2cc(C(=O)Nc3c(C)n(C)n(-c4ccccc4)c3=O)no2)c1,12,103,-10,40,-3.8,i,1.1
NC(=O)CNC1CC(=O)N(CCc2ccccc2)C1=O (stereo unspecified),17,121,-2,103,-0.3,i,1.1
O=C(NC1CCCc2ccccc21)c1ccc(Br)cc1 (stereo unspecified),·,·,-11,99,-0.5,i,1

# Additional structures.
SMILES,INS promoter inh,INS promoter inh cell count,PKD1 inh,RGS16-Gao,GALR2 agonist,HSV augment,HSV augment primary fold
COC(=O)c1[nH]c2cccc(OC)c2c1NC(=O)CN1CCOCC1,0,159,-4,92,-0.3,i,0.94
COc1cc(/C=N/NC(=O)C(=O)NCC2CCCO2)ccc1O (stereo unspecified),6,96,2,98,-0.6,i,1
CN(c1ccccc1)c1ccc(/C=N/N2CCOCC2)cc1,-12,147,7,104,-0.7,i,0.99
CC1CCN(C(=O)COC(=O)c2ccc3c(c2)OCO3)CC1,·,·,-3,101,·,i,1
O=C(CN(Cc1ccc2c(c1)OCO2)C(=O)CNS(=O)(=O)c1ccccc1)NCc1ccco1,-12,81,1,101,-1.7,i,0.94
CSc1ncccc1C(=O)N1CCCC(CCC(=O)NCc2ccccc2F)C1 (stereo unspecified),-5,146,-5,104,·,i,1
Cc1cccc(OCC(=O)Nc2ccc3c(c2)OCCO3)c1,-7,114,-13,104,-2.0,i,0.95
CCCOc1ccc(C(=O)NCCCn2ccnc2)cc1,-23,116,-21,108,-0.8,i,1
CC(=O)Nc1ccc(N=Cc2ccc(OCc3ccccc3)cc2)cc1,·,·,-3,106,-2.0,i,0.96
CCC(C)(C)NC(=O)C(c1cccnc1)N(C(=O)c1csnn1)c1ccc(C)cc1 (stereo unspecified),-5,112,-1,103,·,i,0.98
c1ccc(CCc2ccccc2-c2nc(-c3ccccn3)no2)cc1,37,147,3,79,-0.9,i,1.1
O=C(COC(=O)c1ccc(Cl)nc1)Nc1ncc(Cl)cc1Cl,·,·,-1,104,·,i,0.9
CCCCCOc1ccc(CN2CCOCC2)cc1Cl,·,·,2,93,-2.9,i,0.84
C[C@H]1O[C@H](O[C@H]2[C@H](O)[C@@H](O)[C@@H](O[C@H]3[C@H](O)[C@@H](O)C(O)O[C@@H]3CO)O[C@@H]2CO)[C@H](O)[C@@H](O)[C@@H]1N[C@H]1C=C(CO)[C@@H](O)[C@H](O)[C@H]1O (stereo partly specified),·,·,·,94,·,i,0.73
COC(=O)C(=Cc1ccc(-c2ccsc2C(=O)OC)o1)C(=O)OC,·,·,·,99,·,i,0.76
Cc1nn2c(NCc3cccnc3)c3c(nc2c1-c1ccccc1)CCC3,·,·,·,98,·,i,0.94
O=C(Nc1cccc(C(=O)N2CCN(Cc3ccccc3)CC2)c1)c1ccccc1,3,38,-8,101,-1.3,i,0.92
CCCCCCCC1CC(/C(C)=N/NC(N)=O)OC1=O (stereo unspecified),39,104,-3,100,-1.3,i,0.87
COc1ccc(S(=O)(=O)N2CCC(C(=O)N3CCCC3)CC2)cc1,7,141,-15,103,0.1,i,0.92
COc1ccc(NC(=O)/C(Cl)=C(/Cl)S(=O)(=O)Cc2ccccc2)cn1,-63,32,0,87,-2.3,i,0.35
COc1ccc(/C=C2\C(=O)c3ccccc3OC2c2ccccc2)cc1 (stereo unspecified),·,·,·,102,·,i,0.7
Cc1cccc(C(=O)N/C(=C\c2ccc(C)o2)C(=O)O)c1,·,·,·,97,·,i,1.1
Cc1ccnc2nc(C(=O)Nc3nnc(CC(C)C)s3)nn12,·,·,2,102,-0.8,i,0.85
O=C(CSc1ccc2c(c1)OCCO2)NC(=O)Cc1ccccc1,23,100,14,94,-0.7,i,1
Cc1ccc(C(=O)NCCSC2CCCCC2)cc1S(=O)(=O)Nc1ccccc1,·,·,-8,100,-1.3,i,0.7

# Already shown: 3 of the compounds above.
SMILES,INS promoter inh,INS promoter inh cell count,PKD1 inh,RGS16-Gao,GALR2 agonist,HSV augment,HSV augment primary fold
Cc1ccnc2nc(C(=O)Nc3nnc(CC(C)C)s3)nn12,·,·,2,102,-0.8,i,0.85
O=C(CSc1ccc2c(c1)OCCO2)NC(=O)Cc1ccccc1,23,100,14,94,-0.7,i,1
Cc1ccc(C(=O)NCCSC2CCCCC2)cc1S(=O)(=O)Nc1ccccc1,·,·,-8,100,-1.3,i,0.7

# Reformatted: entries from further up
molecule | INS promoter inh | INS promoter inh cell count | PKD1 inh | RGS16-Gao | GALR2 agonist | HSV augment | HSV augment primary fold
Cc1cccc(C(=O)N/C(=C\c2ccc(C)o2)C(=O)O)c1 | · | · | · | 97 | · | i | 1.1
c1ccc(CCc2ccccc2-c2nc(-c3ccccn3)no2)cc1 | 37 | 147 | 3 | 79 | -0.9 | i | 1.1
COc1ccc(S(=O)(=O)N2CCC(C(=O)N3CCCC3)CC2)cc1 | 7 | 141 | -15 | 103 | 0.1 | i | 0.92

# (continued)
SMILES,INS promoter inh,INS promoter inh cell count,PKD1 inh,RGS16-Gao,GALR2 agonist,HSV augment,HSV augment primary fold
COC(=O)c1ccc2c(=O)n(CCCCCC(=O)NCc3ccc4c(c3)OCO4)c(=O)[nH]c2c1,0,92,4,100,-4.2,i,0.81
COC(CN1C(=O)C(=O)/C(=C(/O)c2ccccc2)C1c1ccccn1)OC (stereo unspecified),·,·,-1,53,·,i,1
CCN1C(=O)C(CC(=O)Nc2c(C)cccc2C)SC1=Nc1ccc(S(N)(=O)=O)cc1 (stereo unspecified),-375,51,-13,97,0.4,i,0.89
CC(C)C(NS(=O)(=O)c1cccs1)C(=O)NCc1ccc2c(c1)OCO2 (stereo unspecified),·,·,-12,104,-0.4,i,0.95
COc1ccc(S(=O)(=O)Cc2ccc(C(=O)N3CCN(C4CCCCC4)CC3)o2)cc1,·,·,-5,101,-0.9,i,0.93
CCSC1=NC(C)(C)C=C(C)N1,33,91,-7,99,-3.3,i,0.82

# Assay outcomes: PubChem, several laboratories
